Source: PubChem BioAssay (National Center for Advancing Translational Sciences (NCATS))
Sfp PPTase inh = qHTS Assay for Inhibitors of Bacillus subtilis Sfp phosphopantetheinyl transferase (PPTase). AID 1490, 2009. 310,000 compounds, 3.5% hits. Biochemical Sfp PPTase activity, qHTS. 4'-phosphopantetheinyl transferase ffp (Bacillus subtilis), Q9F4F7. Potency, µM, for inactives: max response, negative = inhibition, most hits filed as inhibitors; active = well fitted inhibition curve with a large enough effect; inconclusive = small, poorly fitted or top-dose-only effect, or another doubt; inactive = no such curve, though single readings can be large or run the other way;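 also: the enzyme is Sfp with the accession as filed and its product quenches rhodamine fluorescence; potency is read from the fitted curve at half-maximal effect; 0% = enzyme reaction without inhibitor and -100% = no enzyme wells; top concentration of the series not given in the record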
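After 15 min at room temperature with compound, 15 nM Sfp received 5 uM rhodamine-CoA plus 12.5 uM BHQ-2-ybbR (50 mM Hepes pH 7.6, 10 mM MgCl2). Rate came from the fluorescence difference over 30 min, ex 525/em 598 nm.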
TRPML1 inh = qHTS for Inhibitors of the Human Mucolipin Transient Receptor Potential 1 (TRPML1); Mucolipin-1 (Homo sapiens), Q9GZU1; TRPML1-inducible cells, Ca2+ dye fluorescence, FDSS; active compounds read low; inhibition of EC80 agonist-evoked calcium signal; activity change, negative = inhibition, % (concentration not given with the values); 390,000 compounds, 0.02% hits; in the data active means activity change below about -50%; inconclusive means about -30% to -50%; inactive means above about -30%;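 also: stimulus is agonist 54-4 at its EC80 concentration; % is scaled to controls: 0 for no effect and ±100 for the full control effect; the text of the record puts the active cut at -80%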
Target sequence (Q9GZU1 whole entry, looked up): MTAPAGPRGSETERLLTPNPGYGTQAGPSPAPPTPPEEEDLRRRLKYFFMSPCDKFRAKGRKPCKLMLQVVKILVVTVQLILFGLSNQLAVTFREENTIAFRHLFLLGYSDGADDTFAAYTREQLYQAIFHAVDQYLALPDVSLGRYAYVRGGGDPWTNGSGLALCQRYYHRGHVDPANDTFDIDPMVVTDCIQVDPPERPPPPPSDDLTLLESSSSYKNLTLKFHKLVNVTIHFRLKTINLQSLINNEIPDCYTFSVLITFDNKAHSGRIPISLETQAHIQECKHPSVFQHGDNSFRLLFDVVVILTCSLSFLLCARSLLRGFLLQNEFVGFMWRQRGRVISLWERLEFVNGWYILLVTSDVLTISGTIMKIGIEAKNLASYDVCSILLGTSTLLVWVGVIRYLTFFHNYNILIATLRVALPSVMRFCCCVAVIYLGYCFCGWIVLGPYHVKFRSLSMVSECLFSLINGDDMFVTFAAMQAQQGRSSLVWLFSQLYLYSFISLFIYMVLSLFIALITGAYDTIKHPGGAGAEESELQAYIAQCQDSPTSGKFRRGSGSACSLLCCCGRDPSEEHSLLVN
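TRPML1-DL cells, Tet-induced overnight (~16 h, 37 °C) at 1,500 cells/well, were loaded with Ca8 no-wash dye plus quencher for 45-90 min at room temperature. Compounds were pinned during FDSS kinetic reading; agonist 54-4 at EC80 (4 uM final) then added.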
TRPV1 PAM = HTS Assay for Compounds that Act as Potentiators of the Vanilloid Receptor 1. Transient receptor potential cation channel subfamily V member 1 (Homo sapiens), Q8NER1. TRPV1-expressing cells, Fluo-8 calcium influx, capsaicin EC20 potentiation; host cell line not named in the record; control for the full effect not named in the record. potentiation, % at 8.33 µM. 320,000 compounds, 0.02% hits. AID 540277, 2011; active means potentiation above 80%; inconclusive means 30% to 80%; inactive means below 30%; also: 0% is about no effect
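Cells expressing TRPV1 were dye-loaded with Fluo-8 and read kinetically: 10 s baseline, 3 min after compound (agonist portion), then 2 min after EC20 capsaicin (allosteric enhancer portion). Calcium-bound dye fluorescence at 480/520 nm.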
gsp agonist = qHTS for Agonist of gsp, the Etiologic Mutation Responsible for Fibrous Dysplasia/McCune-Albright Syndrome: qHTS; gsp mutant cells, cAMP HTRF, 30 min; control for the full effect not named in the record; Potency, µM (highest dose often 76.9 µM), inactives show top-dose activation (cAMP increase), most hits filed as activators; 340,000 compounds, 0.13% hits; AID 624287, 2012; active = well fitted activation curve with a large enough effect; inconclusive = small, poorly fitted or top-dose-only effect, or another doubt; inactive = no such curve, though single readings can be large or run the other way; cell line not stated here;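 also: phosphodiesterase inhibitor Ro 20-1724 added with compounds to block cAMP breakdown; potency is read from the fitted curve at half-maximal effect; nearly all actives have a fitted effect of over 60% in size; about a fifth of the inactives were tested at one dose only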
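Cells stably selected in G418 were plated at 2000/well, grown 16-24 hr, then given compounds in DMSO with the PDE inhibitor […] (300 uM solution added) for 30 min at 37C; cAMP was read by HTRF.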
gsp antag = qHTS for Antagonists of gsp, the Etiologic Mutation Responsible for Fibrous Dysplasia/McCune-Albright Syndrome: qHTS; gsp-mutant cells, cAMP HTRF, 30 min; control for the full effect not named in the record; Potency, µM (titrated, usually from 76.9 µM), without a hit: top-dose activity change, negative = inhibition, usual class: inhibitors; 340,000 compounds, 0.4% hits; AID 624288, 2012; active = falling curve of any shape with a large fitted effect; inconclusive = falling curve, mostly with a smaller effect; inactive = flat or rising curve; cell line not stated here;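 also: intracellular cAMP measured with PDE inhibitor Ro 20-1724 present during compound exposure; potency is read from the fitted curve at half-maximal effect; % is scaled to controls: 0 for no effect and ±100 for the full control effect; nearly all actives have a fitted effect of over 65% in size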
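Cells in G418 medium, seeded 16-24 h, 37C; buffer exchange to DPBS + 1 mM CaCl2, 0.5 mM MgCl2, 0.05% BSA; cpds in DMSO + […] (300 uM stock), 30 min 37C; HTRF cAMP detection.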
ClpP mod = qHTS Assay for Activators of ClpP | purified B. subtilis ClpP, FRET peptide cleavage, 20 min | Potency, µM (highest dose often 57.5 µM), for inactives: top-dose activity change, negative = active | 340,000 compounds, 1.9% hits | AID 651965, 2013; active = well fitted falling curve with a large enough effect; inconclusive = small, poorly fitted or top-dose-only effect; inactive = no such curve, though single readings can be large or run the other way; also: potency is read from the fitted curve at half-maximal effect; the source files actives as falling curves though it sought activators and does not explain the sign; nearly all actives have a fitted effect of over 65% in size; many hits overshoot -100%
Target sequence (P80244 whole entry, looked up): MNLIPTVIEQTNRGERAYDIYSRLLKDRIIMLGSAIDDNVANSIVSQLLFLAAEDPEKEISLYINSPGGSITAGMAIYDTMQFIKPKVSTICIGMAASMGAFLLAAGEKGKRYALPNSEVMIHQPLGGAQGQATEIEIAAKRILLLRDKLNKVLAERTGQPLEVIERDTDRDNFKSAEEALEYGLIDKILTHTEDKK
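Buffer: 100 mM Tris/HCl pH8, 100 mM KCl, 0.05% low protease BSA, 2.5% glycerol, 0.01% Tween-20. ClpP 10 microg/mL final; 20 min RT; delta FRET normalized to ADEP and DMSO controls.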
Menin-MLL FL inh = qHTS Assay for Inhibitors Targeting the Menin-MLL Interaction in MLL Related Leukemias: Competition With Fluorescein Labeled MLL-derived Peptide | Fluorescence polarization, fluorescein-MLL peptide displacement from menin | FP activity change, % at 61.4 µM | 290,000 tested, under 10 active; inconclusive = falling polarisation curve, or a change in total fluorescence; inactive = total fluorescence flat and polarisation flat or rising; no compound was filed as active; the % refers to the polarisation; negative = inhibition;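 also: % of control where 0% means no effect; inhibitors lower the polarisation; unlabelled MLL peptide was the positive control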
Starred values were filed as active, the others as inactive; & = joins results of further samples; [ ] = another dose, or the depositor's remark.

`COCCNc1nc(-c2cc(C)c(C)cc2C)cs1` gave Sfp PPTase inh inconclusive, TRPML1 inh -18, TRPV1 PAM 7, gsp agonist 25%[15.4 µM], gsp antag -36% and Menin-MLL FL inh 0.9.
For CCOC(=O)c1ccc(-n2c(CCC(=O)O)ccc2-c2ccccc2)cc1 the results were Sfp PPTase inh -6%, TRPML1 inh 21&-18, TRPV1 PAM 17, gsp agonist 6%, gsp antag -11%, ClpP mod inconclusive and Menin-MLL FL inh 5.4.
Screening C(=NNc1nnn(Cc2ccccc2)n1)c1ccccc1 returned TRPML1 inh -7, gsp agonist -39%[inhibitor] and ClpP mod -1.5%.
For COc1cccc(NC(=S)NCCc2ccccn2)c1 the results were Sfp PPTase inh inconclusive, TRPML1 inh 15, TRPV1 PAM -8, gsp agonist -7%, gsp antag 7%, ClpP mod -2.7% and Menin-MLL FL inh -2.0.
Cn1c(=O)c2c(nc(SCC(=O)NC34CC5CC(CC(C5)C3)C4)n2C)n(C)c1=O was read as Sfp PPTase inh inconclusive, TRPML1 inh 5, TRPV1 PAM -11, gsp agonist -6%, gsp antag -1%, ClpP mod 1.2% and Menin-MLL FL inh -4.1.
CC(CNCCCn1cnc2c(OCc3ccccc3)ncnc21)c1ccccc1 (stereo not given) was read as TRPML1 inh 45, gsp antag 4% and ClpP mod -0.5%.
Screening CC[C@]1(C(=O)OC)[C@H]2C(=O)N(C)C(=O)[C@H]2[C@H]2CN=C(SCc3ccc(C(=O)OC)cc3)N21 returned TRPML1 inh -23, gsp antag 11% and ClpP mod 0.4%.
`CCC1(CC)C(=O)N(c2ccccc2)C(=N)N(c2ccccc2)C1=O` gave TRPML1 inh 4, gsp agonist -3%[15.4 µM], gsp antag -3% and ClpP mod 1.6%.
`CO/N=C/NC(=O)NOCc1c(Cl)cccc1Cl` gave Sfp PPTase inh 8%, TRPML1 inh -13, TRPV1 PAM -7, gsp agonist inconclusive, gsp antag 7%, ClpP mod -1.7% and Menin-MLL FL inh 1.4.
For COc1ccc(C2/C=C\CN(C(=O)C3CCCCC3)CC(=O)N2Cc2ccc(F)cc2)cc1 (stereo not given) the results were Sfp PPTase inh -11%&14%, TRPML1 inh 3&-7, TRPV1 PAM -34, gsp antag 3%, ClpP mod -1.6% and Menin-MLL FL inh 0.2&1.4.
For COc1cccc(NC(=O)c2ccc(CN3CCOCC3)cc2)c1 the results were Sfp PPTase inh 22%, TRPML1 inh 16, TRPV1 PAM -9, gsp agonist inconclusive, gsp antag 0%[15.4 µM], ClpP mod 1.5% and Menin-MLL FL inh 1.7.
`CCc1ccccc1N(C(=O)CCC(=O)Nc1cc(C)on1)C(C(=O)NC1CCCC1)c1ccco1` (stereo not given) gave Sfp PPTase inh 11%, TRPML1 inh -1, TRPV1 PAM -4, gsp agonist -25%, gsp antag -22%, ClpP mod 0.4% and Menin-MLL FL inh 0.7.
Screening Cc1cccc(S(=O)(=O)Nc2ccc(-c3ccc4nncn4n3)cc2)c1 returned TRPML1 inh 2, TRPV1 PAM -1, gsp agonist -2%[15.4 µM], gsp antag 2% and ClpP mod -0.4%.
Screening CCC1COCCS(=O)(=O)N1Cc1ccccc1 (stereo not given) returned Sfp PPTase inh 17%, TRPML1 inh -20, TRPV1 PAM 19, gsp antag 1%, ClpP mod -1.7%&1.8% and Menin-MLL FL inh 1.0.
`Cc1ncc([N+](=O)[O-])n1CC(=O)Nc1ccc(Cl)cc1` gave Sfp PPTase inh 23%, TRPML1 inh 4, TRPV1 PAM 9, gsp agonist 2%[15.4 µM], gsp antag 5% and Menin-MLL FL inh 0.0.
`CN(C)CCCN(C(=O)c1ccc2c(c1)CCCC2)c1nc2cc3c(cc2s1)OCO3` gave Sfp PPTase inh -19%, TRPML1 inh 6, TRPV1 PAM -7, gsp agonist -28%, gsp antag 11%, ClpP mod -2.7% and Menin-MLL FL inh -0.5.
Screening Cc1ccc(NC(=Nc2ccc(Br)cc2)N2CCOCC2)cc1C returned Sfp PPTase inh 6%, TRPML1 inh 5, TRPV1 PAM 11, gsp agonist -13%[15.4 µM], gsp antag 11% and Menin-MLL FL inh 5.1.
Screening CCOC(=O)COc1cccc2c(=O)n(CC(=O)N3CCc4ccccc43)ccc12 returned Sfp PPTase inh 17%, TRPML1 inh 1, TRPV1 PAM 8, gsp agonist 13%, gsp antag 7%, ClpP mod -28% and Menin-MLL FL inh 4.3.
For COc1cccc(NC(=O)CN(C)C(=O)C2CC3C=CC2C3)c1 (stereo not given) the results were TRPML1 inh -11, gsp agonist -14% and gsp antag 9%.
For CC(NC(=O)c1cc(-c2ccccc2)on1)c1ccccc1 (stereo not given) the results were Sfp PPTase inh 13%, TRPML1 inh -1, TRPV1 PAM -26, gsp agonist -23%, gsp antag 19%, ClpP mod 0.6% and Menin-MLL FL inh -1.8.
`CCc1ccccc1NC(=S)N1CCC(C(=O)c2ccc(F)cc2)CC1` gave Sfp PPTase inh 6%, TRPML1 inh 1, gsp agonist -22%, gsp antag 9%, ClpP mod -0.3% and Menin-MLL FL inh 0.7.
Screening CCN(CC)CCCNC(=O)CCn1nc(-c2ccccc2)ccc1=O returned Sfp PPTase inh 6%, TRPML1 inh -14, TRPV1 PAM -2, gsp agonist inconclusive, gsp antag 6%, ClpP mod -17% and Menin-MLL FL inh -4.6.
`NC(=O)c1c(NC(=O)c2ccccc2)sc2c1CCc1ccccc1-2` gave Sfp PPTase inh 16%, TRPML1 inh -15, TRPV1 PAM 2, gsp agonist 14%, gsp antag -6%, ClpP mod 32µM* and Menin-MLL FL inh 0.9.
For O=C(NCc1ccccc1C(F)(F)F)C1CC(c2ccccc2C(F)(F)F)=NO1 (stereo not given) the results were Sfp PPTase inh -3%, TRPML1 inh 0, TRPV1 PAM inconclusive, gsp antag -3%, ClpP mod -1.1% and Menin-MLL FL inh 0.6.
`O=C(NC1CCN(C(=S)NCc2ccco2)CC1)NC12CC3CC(CC(C3)C1)C2` gave Sfp PPTase inh inconclusive, TRPML1 inh 3, TRPV1 PAM -4, gsp agonist -3%, gsp antag -19%, ClpP mod -4.9% and Menin-MLL FL inh 7.6.
Screening CNc1ccccc1C(C)(C)c1cc(-c2cccc([N+](=O)[O-])c2)no1 returned Sfp PPTase inh 14%, TRPML1 inh 16, TRPV1 PAM 29, gsp agonist -11%, gsp antag -10% and Menin-MLL FL inh 6.1.
`CCOC(=O)c1ccc(NC(=O)CCNS(=O)(=O)c2cc(Br)cnc2N)cc1` gave Sfp PPTase inh 9%, TRPML1 inh -14, TRPV1 PAM 11, gsp agonist -33%[inhibitor], gsp antag -14% and ClpP mod -23%.
For Cc1c(C(=O)N(CC(C)C)c2c(N)n(Cc3ccccc3)c(=O)[nH]c2=O)sc2nc3n(c(=O)c12)CCC3 the results were TRPML1 inh 6, TRPV1 PAM -32, gsp agonist inconclusive, gsp antag 4% and ClpP mod 2.1%.
Screening CCCCCC(=O)Nc1nnc(CCc2ccccc2)s1 returned Sfp PPTase inh 22%, TRPML1 inh 0, TRPV1 PAM inconclusive, gsp agonist -29%, gsp antag 7% and Menin-MLL FL inh -0.7.
For Cc1ccccc1CNC(=O)CCC(=O)N1CCOc2ccc(Cl)cc21 the results were Sfp PPTase inh 12%, TRPML1 inh -2, TRPV1 PAM -14, gsp agonist -26%, gsp antag 0%, ClpP mod 0.1% and Menin-MLL FL inh -1.0.
COc1ccc(N(CC(=O)Nc2cc(Cl)ccc2OC)S(=O)(=O)c2c(C)noc2C)cc1 was read as Sfp PPTase inh 14%, TRPML1 inh 4, TRPV1 PAM 3, gsp agonist 5%, gsp antag 8%, ClpP mod 1.1% and Menin-MLL FL inh 1.8.
For COc1ccc(/C=C2\SC(=O)N=C2N)cc1 the results were Sfp PPTase inh -3%, TRPML1 inh 15, TRPV1 PAM 29, gsp agonist 29%, gsp antag 3%, ClpP mod -2.2% and Menin-MLL FL inh -2.3.
COc1ccc(-c2noc(CNC(=O)C(C)Oc3ccccc3)n2)cc1 (stereo not given) was read as Sfp PPTase inh 3%, TRPML1 inh -8, TRPV1 PAM -30, gsp agonist 16%, gsp antag -6%, ClpP mod -3.7% and Menin-MLL FL inh -0.4.
O=C(Nc1ccc(F)cc1)c1ccc(Br)c(S(=O)(=O)N2CCOCC2)c1 was read as Sfp PPTase inh 0%, TRPML1 inh 16, TRPV1 PAM -19, gsp agonist -47%[inhibitor], gsp antag -12% and Menin-MLL FL inh -4.0.
For COC(=O)c1ccc(NC(=O)C(=O)c2c[nH]c3ccccc23)cc1 the results were Sfp PPTase inh 8%, TRPML1 inh -9, TRPV1 PAM 2, gsp agonist inconclusive, gsp antag 2%, ClpP mod -0.1% and Menin-MLL FL inh 0.4.

Quoted at random: 2 entries already listed
For COC(=O)c1ccc(NC(=O)C(=O)c2c[nH]c3ccccc23)cc1 the results were Sfp PPTase inh 8%, TRPML1 inh -9, TRPV1 PAM 2, gsp agonist inconclusive, gsp antag 2%, ClpP mod -0.1% and Menin-MLL FL inh 0.4.
Screening CCN(CC)CCCNC(=O)CCn1nc(-c2ccccc2)ccc1=O returned Sfp PPTase inh 6%, TRPML1 inh -14, TRPV1 PAM -2, gsp agonist inconclusive, gsp antag 6%, ClpP mod -17% and Menin-MLL FL inh -4.6.
